Screening data: PubChem BioAssay, National Center for Advancing Translational Sciences (NCATS)
DT40 TDP1 CPT – growth inhibition of DT40 Tdp1-/-;hTDP1 cells with camptothecin (screen for TDP1 inhibitors); AID 686979; 12% of 420,000 active; Potency, µM (top dose mostly 46.2 µM), without a hit: at the top dose activity change, negative = growth inhibition, actives largely listed as inhibitors; chicken DT40 Tdp1-/-;hTDP1 cells + 20 nM CPT, ATP luminescence, 48 h; also: nearly all actives have a fitted effect of over 55% in size
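Cell growth measured by CellTiter-Glo luminescence after a minimum 48 h, 37 C compound exposure with 20 nM CPT in Tdp1-knockout DT40 cells stably expressing hTDP1, seeded 400/well; qHTS titration format.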
FEN1 inhibitor – human FEN1 inhibition; 0.35% of 390,000 active; Potency, µM (highest dose often 114 µM), for the others: at the highest dose activity change, negative = inhibition, actives largely listed as inhibitors; P39748; AID 588795; Recombinant FEN1 flap cleavage, fluorescence, 15 min; also: nearly all actives have a fitted effect of over 65% in size
Target sequence (P39748 whole entry, looked up): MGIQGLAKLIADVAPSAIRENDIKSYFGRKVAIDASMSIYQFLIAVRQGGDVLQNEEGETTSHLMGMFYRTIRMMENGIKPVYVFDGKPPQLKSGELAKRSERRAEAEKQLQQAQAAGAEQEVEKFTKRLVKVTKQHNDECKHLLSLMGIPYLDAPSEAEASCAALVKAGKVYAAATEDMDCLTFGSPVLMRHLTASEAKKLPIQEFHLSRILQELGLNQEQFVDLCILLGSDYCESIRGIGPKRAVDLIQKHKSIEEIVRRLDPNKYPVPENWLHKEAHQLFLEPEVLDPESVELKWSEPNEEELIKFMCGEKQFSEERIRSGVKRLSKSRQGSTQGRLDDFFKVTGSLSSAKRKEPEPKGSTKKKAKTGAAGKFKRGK
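FEN1 at 10 nM preincubated with compounds 15 min at room temperature, then flap DNA substrate added at 50 nM final. Signal read at 0 and 15 min; concentration-response fitted with four-parameter Hill equation.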
An asterisk follows results filed as active; ? = inconclusive; . = not tested or not shown; & = joins results of further samples. Calls follow the shape of the dose curve; as a rule, active = well fitted curve in the direction sought with a large enough effect; inconclusive = small, poorly fitted or top-dose-only effect, or another doubt; inactive = no such curve, though single readings can be large; an effect the other way counts as inactive or inconclusive. % is scaled to controls: 0 for no effect and ±100 for the full control effect; potency is read from the fitted curve at half-maximal effect. An excerpt, and most or all hits are left out here.

SMILES | DT40 TDP1 CPT | FEN1 inhibitor
COc1ccc(CNC(=O)CC2N=C3c4ccccc4N=C(SCC(=O)Nc4ccc(C(C)C)cc4)N3C2=O)cc1 (stereo not given) | -9.9% | 12.9%
COc1ccc(S(=O)(=O)NCC(=O)N(CC(=O)NC(C)(C)C)Cc2cccs2)cc1 | -4.5% | 6.6%
COc1ccc(OC)c(CCNC(=O)c2ccc(NC3=NC4CS(=O)(=O)CC4S3)cc2)c1 (stereo not given) | 0.5% | -5.3%
O=C(NCCCN1CCc2ccccc2C1)C1CCN(c2nnc(-n3cccc3)s2)CC1 | ? | 6.5%
O=C(N/N=C/c1cccnc1)c1ccccc1 | 11.8% | -2.0%
Cc1ccc(S(=O)(=O)Nc2cccc(C(=O)NCc3ccc(S(N)(=O)=O)cc3)c2)cc1 | ? | -6.3%
O=C(COc1ncnc2ccc(Br)cc12)NCc1ccco1 | ? | -7.1%
O=C(COC(=O)CNS(=O)(=O)c1ccccc1)Nc1ncc(Cl)cc1Cl | 6.4% | -13.8%
Cc1nn(Cc2ccccc2)c2c1C(c1ccncc1)C(C#N)=C(N)O2 (stereo not given) | 20.6µM* | 2.3%
c1ccc(COc2ccc(CN3CCN(c4ccccn4)CC3)cc2)cc1 | ? | -15.5%
CCSc1nnc(CCNC(=O)OC(C)(C)C)o1 | -12.0% | 10.5%
CC(C)S(=O)(=O)c1csc(C(=O)Nc2ccc(F)cc2)c1N | 20.6µM* | 8.3%
O=C(NNc1ncccc1Cl)c1c(Cl)cccc1Cl | ? | -8.0%
Cc1ccc(C)c(-c2nnc(OCC(=O)Nc3cc(C)on3)c3ccccc23)c1 | -13.1% | -12.0%
Cc1ccc(C)c(N2CCN(C(=O)CNS(=O)(=O)c3cccs3)CC2)c1 | -28.6% | -16.0%
CN(C)S(=O)(=O)c1ccc(C(=O)Nc2ccc3ncccc3c2)cc1 | 13.0% | 23.5%
CCCn1c(N)c(N(CCOC)C(=O)c2ccc([N+](=O)[O-])c(C)c2)c(=O)[nH]c1=O | -0.1% | 11.9%
CCN(C(=O)COC(=O)c1ccccc1NCCO)C1CCS(=O)(=O)C1 (stereo not given) | 17.2% | 11.4%
COC(=O)Cn1c(=O)c2c(nc3n2CCN3c2cccc(C)c2)n(C)c1=O | ? | 4.6%
CC(=O)Nc1ccc(/C=N/NC(=O)c2cccc(S(=O)(=O)N3CCOCC3)c2)cc1 | -15.2% | 2.7%
Cn1c(N)c(C(=O)COC(=O)C2CCCCC2)c(=O)n(C)c1=O | -26.1% | -8.3%
CCOC(=O)c1c(NC(=O)CSc2nnc(-c3c[nH]c4ccccc34)n2C)sc2c1CCCC2 | ? | -17.5%
Cc1cc(C(C)(C)C)ccc1OCCCCN1CCCC1 | ? | 3.5%
CCNc1ccc([N+](=O)[O-])cc1 | 10.3% | 13.0%
Cc1[nH]c2ccccc2c1C(=O)/C=C/c1ccccc1Cl | -28.2% | -0.4%
Continued:
SMILES | DT40 TDP1 CPT | FEN1 inhibitor
O=C(NCCc1ccccc1)C1CCCN1C(=O)Nc1ccc(Cl)cc1 (stereo not given) | 16.4µM* | 20.0%
O=C(NCc1ccc(Cl)cc1)C1CCC(=O)N(C2CC2)C1 (stereo not given) | 0.2% | -1.6%
CCOC(=O)COc1ccc([N+](=O)[O-])cc1 | 3.2% | 0.5%
O=C1C2C3CCCC3=C3CCCC3C2C(=O)N1c1cccc(Cl)c1 (stereo not given) | -9.6% | -1.9%
CCCCNc1cc(F)nc(N)n1 | -8.7% | 2.1%
CN(C)S(=O)(=O)c1ccc(Cl)c(NC(=O)COC(=O)CN2C(=O)NC(C)(C)C2=O)c1 | 1.5% | 1.8%
Cc1ccc(S(=O)(=O)c2cn(CC(=O)Nc3ccccc3)c3cc4c(cc3c2=O)OCO4)cc1 | -1.2% | -9.0%
Cc1ccc(NC(=O)C2CCCN(S(=O)(=O)c3cnc[nH]3)C2)c(Br)c1 (stereo not given) | -17.0% | -11.5%
CCOc1ccc(C2c3c(oc4cc(C)c(C)cc4c3=O)C(=O)N2CCCN2CCOCC2)cc1 (stereo not given) | -19.9% | 16.9%
CCCCC(O)(CCCC)C(=O)N/N=C(\C)c1ccc(Cl)cc1 | ? | 12.8%
O=C(Nc1nnc(SCC(=O)N2CCCc3ccccc32)s1)c1ccccc1 | 13.6% | -11.2%
CCOC(=O)c1c(NC(=O)COC(=O)c2c(C)noc2C)sc2c1CCC2 | -27.8% | 0.5%
COc1ccc2cc(C3(C)NC(=O)N(CC(=O)NCC(F)(F)F)C3=O)ccc2c1 (stereo not given) | 2.2% | -8.6%
COCCNC(=S)N(CCO)Cc1cc2cc3c(cc2[nH]c1=O)OCO3 | -4.8% | -0.1%
COCCOC(=O)c1c(NC(=O)CNc2ccc(C)c(F)c2)sc(C(N)=O)c1C | ? | -0.1%
Cc1cc(C)c(NC(=O)CCCOC(=O)C2=COCCO2)c(C)c1 | 4.5% | 4.0%
Cc1nn(Cc2c(Cl)cccc2Cl)c(C)c1NC(=O)CCCn1nc([N+](=O)[O-])c(Cl)c1C | ? | -2.4%
C[C@@H]1C=C(C(=O)N2CCN(Cc3ccccc3)CC2)O[C@H](OCc2ccc(CO)cc2)C1 | -20.4% | 3.4%
Cc1ccc(Cl)c(OC(=O)c2ccc(N3CCOCC3)c([N+](=O)[O-])c2)c1 | 0.7% | -3.7%
C/C(=N\O)c1noc(C)c1C(=O)Nc1nccs1 | ? | -2.4%
O=c1cc[nH]c2cccc(Cc3ccccc3)c12 | ? | -1.6%
COc1ccc(N(C)C(=O)c2cn(C)c(=O)c3cc(OC)c(OC)cc23)cc1 | 19.5%&-12.8% | 14.3%&-16.8%
COc1ccc(CCNC(=O)c2ccc3c(c2)S(=O)(=O)N=C2CCCCCN23)cc1 | -6.1% | -2.6%
O=S(=O)(Nc1ccc(-n2cccc2)cc1)c1ccccc1 | ? | -5.3%
CN(c1ccccc1)S(=O)(=O)c1cccc(NC(=O)CN2C(=O)NC3(CCCCC3)C2=O)c1 | -11.0% | 3.5%
Later entries:
SMILES | DT40 TDP1 CPT | FEN1 inhibitor
Fc1ccc(-c2nnc(CN3CCN(c4ncc(C(F)(F)F)cc4Cl)CC3)o2)cc1 | 13µM* | -20.3%
Cc1ccc(S(=O)(=O)N2CCN(Cc3cc(Br)ccc3O)CC2)cc1 | 18.4µM* | -4.3%
Cc1nc(C)c(-c2csc(Nc3ccc(F)cc3)n2)s1 | ? | -2.9%
O=C(Cc1noc2ccccc12)Nc1ccc2ccccc2c1 | -15.9% | 19.3%
CCC(CC)NC(=O)c1cccc([N+](=O)[O-])c1C | 11.5% | 0.7%
CCN(CC(=O)Nc1c(F)cccc1F)C(=O)CCNC(=O)c1ccccc1OC | 1.7% | 3.2%
O=C(c1ccc(F)cc1F)N1CCC(c2nc(-c3ccc(S(=O)(=O)N4CCCC4)cc3)no2)CC1 | 4.1% | 0.1%
Cc1ccc(-c2ccc(=O)n(Cc3c(F)cccc3Cl)n2)cc1 | ? | -2.2%
CCOC(=O)CSc1cccc2cccnc12 | 5.8µM* | -3.1%
c1ccc2c(-c3nnc4n3CCCCC4)c[nH]c2c1 | ? | 10.9%
CCCc1ccc2oc(C(=O)N(C)CCn3ccnc3C)c(C)c2c1 | 20.6µM* | 12.1%
O=C(N/N=C/c1ccc(-c2cccc([N+](=O)[O-])c2)o1)[C@H]1C[C@@H]1c1ccccc1 | 29.1µM* | 6.2%
COc1ccc2[nH]cc(C(=O)CCl)c2c1 | 3.26µM* | -10.4%
COC(=O)C(NNc1ccccc1)(NC(=O)c1cccc(F)c1)C(F)(F)F (stereo not given) | ? | 2.2%
Nc1cc(=O)[nH]c(=S)n1-c1cccc(C(F)(F)F)c1 | 1.1% | -0.6%
Cc1ccccc1C(=O)Nc1nnc(SC(C)C)s1 | -18.9% | 17.4%
CCC(C)(C)n1nnnc1CN(Cc1cc2cc(OC)c(OC)cc2[nH]c1=O)C1CCCC1 | -34.4% | -8.3%
COc1ccccc1C(=O)NC(=O)COC(=O)C1CC1 | -14.2% | 5.3%
CCCCCC(=O)N/N=C(\C)c1ccc(N2CCCCC2)cc1 | -5.6% | -1.6%
CCOc1ccc(S(=O)(=O)NCc2ccc(F)cc2)c2cccnc12 | -22.9% | -4.7%
O=C(CN1CCC(C(=O)c2cccc(F)c2)CC1)NCc1cccs1 | -24.3% | 4.1%
CCOc1ccc(NC(=O)CN(C)CC(=O)Nc2cccc(Cl)c2C)cc1OCC | ? | 14.7%
CCc1ccc2[nH]c(C)c(CN3CCCCCC3)c(=O)c2c1 | -16.8% | 3.7%
CC(=O)Nc1nnc(Cc2c[nH]c3ccccc23)s1 | 7.8% | 2.7%
COc1cc(C2C3C(=O)N(c4ccc(F)cc4)C(=O)C3ON2c2ccccc2)ccc1O (stereo not given) | 3.5% | 2.0%

An excerpt from above in order of heavy-atom count, largest number first:
SMILES | DT40 TDP1 CPT | FEN1 inhibitor
O=C(c1ccc(F)cc1F)N1CCC(c2nc(-c3ccc(S(=O)(=O)N4CCCC4)cc3)no2)CC1 | 4.1% | 0.1%
Cc1nn(Cc2c(Cl)cccc2Cl)c(C)c1NC(=O)CCCn1nc([N+](=O)[O-])c(Cl)c1C | ? | -2.4%
Cc1ccc(S(=O)(=O)Nc2cccc(C(=O)NCc3ccc(S(N)(=O)=O)cc3)c2)cc1 | ? | -6.3%
COc1ccc(CCNC(=O)c2ccc3c(c2)S(=O)(=O)N=C2CCCCCN23)cc1 | -6.1% | -2.6%
COCCOC(=O)c1c(NC(=O)CNc2ccc(C)c(F)c2)sc(C(N)=O)c1C | ? | -0.1%
O=C(Nc1nnc(SCC(=O)N2CCCc3ccccc32)s1)c1ccccc1 | 13.6% | -11.2%
c1ccc(COc2ccc(CN3CCN(c4ccccn4)CC3)cc2)cc1 | ? | -15.5%
Cc1ccc(C)c(N2CCN(C(=O)CNS(=O)(=O)c3cccs3)CC2)c1 | -28.6% | -16.0%
O=C(CN1CCC(C(=O)c2cccc(F)c2)CC1)NCc1cccs1 | -24.3% | 4.1%
Cc1cc(C)c(NC(=O)CCCOC(=O)C2=COCCO2)c(C)c1 | 4.5% | 4.0%
O=C(Cc1noc2ccccc12)Nc1ccc2ccccc2c1 | -15.9% | 19.3%
CCc1ccc2[nH]c(C)c(CN3CCCCCC3)c(=O)c2c1 | -16.8% | 3.7%
O=S(=O)(Nc1ccc(-n2cccc2)cc1)c1ccccc1 | ? | -5.3%
COc1ccccc1C(=O)NC(=O)COC(=O)C1CC1 | -14.2% | 5.3%
Nc1cc(=O)[nH]c(=S)n1-c1cccc(C(F)(F)F)c1 | 1.1% | -0.6%
CCC(CC)NC(=O)c1cccc([N+](=O)[O-])c1C | 11.5% | 0.7%
O=C(N/N=C/c1cccnc1)c1ccccc1 | 11.8% | -2.0%
CCOC(=O)COc1ccc([N+](=O)[O-])cc1 | 3.2% | 0.5%
CCCCNc1cc(F)nc(N)n1 | -8.7% | 2.1%

Next section.
SMILES | DT40 TDP1 CPT | FEN1 inhibitor
Cc1ccc(OCc2nnc(SC(C)C(=O)O)n2Cc2ccccc2)cc1 (stereo not given) | -0.8% | 3.2%
Cc1ccc(S(=O)(=O)N2CCN(C(=O)CCC(=O)Nc3ccc(F)cc3F)CC2)cc1 | -25.5% | -15.7%
COc1ccc(OCCC(=O)Nc2cc(C)on2)cc1 | 0.5% | 2.0%
CCC[N+](CC#Cc1ccccc1)(CCC)CC(=O)OCC | -18.4% | -5.2%
O=S(=O)(c1cccc(Cl)c1)N1CCN(S(=O)(=O)c2ccc3c(c2)OCCO3)CC1 | . | 15.3%
COc1ccc(Cl)cc1C1CC(=O)Nc2cc3c(cc21)OCCO3 (stereo not given) | 0.651µM* | -11.8%
CCN(C(=O)COC(=O)c1ccccc1SCC(=O)N1CCCC1)C1CCS(=O)(=O)C1 (stereo not given) | -4.0% | 10.6%
Cn1c(CN2CCOCC2)nc2cc(NC(=O)COc3ccccc3)ccc21 | ? | 7.1%
CCCNC(=O)CN(C)S(=O)(=O)c1ccc(F)cc1 | -14.0% | 0.0%
COc1ccc(C)cc1C(=O)CCC(=O)N1CCN(c2ccccc2F)CC1 | ? | -10.4%
COc1cc2c(cc1OC)CN(CCC(=O)c1ccc(Br)cc1)CC2 | 3.66µM* | -17.2%
O=C(O)c1ccc(-n2nnnc2SCc2ccccc2F)cc1 | 16.7% | -8.9%
O=C(O)CC12CC3CC(C1)CC(n1ncc(NCc4ccccc4)c(Cl)c1=O)(C3)C2 | 1.4% | -10.4%
Cc1ccc(-c2noc(CCC(=O)NC3CCN(Cc4ccccc4)CC3)n2)cc1 | 13µM* | -6.0%
CCc1nc(SCC(=O)NC2CCCC2)c2c(=O)n(C)c(=O)n(C)c2n1 | 2.8% | -4.5%
N#Cc1ccccc1N=Cc1ccc(Br)cc1 | -9.4% | 4.2%
Cc1c(C(c2ccc(O)cc2)c2c(C)n(C)n(-c3ccccc3)c2=O)c(=O)n(-c2ccccc2)n1C | -15.1% | -2.5%
COc1ccc(C2N=C(Nc3ccc(C)cc3)Nc3nc(C)cc(=O)n32)cc1 (stereo not given) | -13.4% | -3.0%
c1cc(CSc2nnc(-c3ccc4c(c3)OCO4)o2)ccn1 | -26.4% | -1.8%
